Screens deposited in PubChem by National Center for Advancing Translational Sciences (NCATS).
ClpP mod = qHTS Assay for Activators of ClpP; Potency, µM (doses to about 57.5 µM), for the others: top-dose activity change, negative = active; AID 651965, 2013; hit rate 1.9% among 340,000; ATP-dependent Clp protease proteolytic subunit (Bacillus subtilis (strain 168)), P80244; purified B. subtilis ClpP, FRET peptide cleavage, 20 min; active = well fitted falling curve with a large enough effect; inconclusive = small, poorly fitted or top-dose-only effect; inactive = no such curve, though single readings can be large or run the other way; also: potency is read from the fitted curve at half-maximal effect; the source files actives as falling curves though it sought activators and does not explain the sign; nearly all actives have a fitted effect of over 65% in size; many hits overshoot -100%
Target sequence (P80244 whole entry, looked up): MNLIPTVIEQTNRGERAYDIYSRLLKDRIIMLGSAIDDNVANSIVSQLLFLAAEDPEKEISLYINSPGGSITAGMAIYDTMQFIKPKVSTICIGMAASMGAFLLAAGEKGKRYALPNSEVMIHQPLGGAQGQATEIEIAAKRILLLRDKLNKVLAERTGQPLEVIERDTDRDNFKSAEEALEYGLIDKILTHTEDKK
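Purified B. subtilis ClpP, 10 microg/mL final in Tris/HCl pH8 with KCl, BSA, glycerol and Tween-20, cleaved an Abz/nitrotyrosine-quenched decapeptide. Fluorescence (ex 320, em 430) was read at 0 and 20 min at room temperature. Delta was normalized to 5.8 microM ADEP and DMSO/no-enzyme controls.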
CtBP-E1A inh = qHTS Assay for Inhibitors of the CtBP/E1A Interaction; CtBP / adenovirus E1A interaction (AlphaScreen); AlphaScreen GST-E1A/His-CtBP binding, 1536-well; stronger effect = lower value; control for the full effect not named in the record; activity change, % (concentration not given with the values); hit rate 0.49% among 340,000; in the data active means activity change below about -65%; inconclusive means about -30% to -65%; inactive means above about -30%; also: % is scaled to controls: 0 for no effect and ±100 for the full control effect
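GST-E1A and His-tagged CtBP (125 nM each as 5X stock) were preincubated with pin-transferred compound for 2 h at 37 °C in the dark, then glutathione donor and nickel acceptor beads were added for 1 h before AlphaScreen reading.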
Menin MLL FP FL = qHTS Assay for Inhibitors Targeting the Menin-MLL Interaction in MLL Related Leukemias: Competition With Fluorescein Labeled MLL-derived Peptide; Fluorescence polarization, fluorescein-MLL peptide displacement from menin; FP activity change, % at 61.4 µM; 290,000 tested, under 10 active; AID 1766, 2009; inconclusive = falling polarisation curve, or a change in total fluorescence; inactive = total fluorescence flat and polarisation flat or rising; no compound was filed as active; the % refers to the polarisation; negative = inhibition;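 also: % of control where 0% means no effect; inhibitors lower the polarisation; unlabelled MLL peptide was the positive control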
Sfp PPTase inh = qHTS Assay for Inhibitors of Bacillus subtilis Sfp phosphopantetheinyl transferase (PPTase); hit rate 3.5% among 310,000; Potency, µM, for inactives: max response, negative = inhibition, most hits filed as inhibitors; Biochemical Sfp PPTase activity, qHTS; 4'-phosphopantetheinyl transferase ffp (Bacillus subtilis), Q9F4F7; active = well fitted inhibition curve with a large enough effect; inconclusive = small, poorly fitted or top-dose-only effect, or another doubt; inactive = no such curve, though single readings can be large or run the other way;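 also: the enzyme is Sfp with the accession as filed and its product quenches rhodamine fluorescence; potency is read from the fitted curve at half-maximal effect; 0% = enzyme reaction without inhibitor and -100% = no enzyme wells; top concentration of the series not given in the record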
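Reaction rates are the 30-min fluorescence difference (ex 525, em 598 nm) in wells containing 15 nM Sfp, 5 uM rhodamine-CoA and 12.5 uM BHQ-2-YbbR at pH 7.6 with 10 mM MgCl2.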
gsp agonist = qHTS for Agonist of gsp, the Etiologic Mutation Responsible for Fibrous Dysplasia/McCune-Albright Syndrome: qHTS; gsp mutant cells, cAMP HTRF, 30 min; control for the full effect not named in the record; Potency, µM (series often up to 76.9 µM), for the others: at the highest dose activation (cAMP increase), most hits filed as activators; hit rate 0.13% among 340,000; active = well fitted activation curve with a large enough effect; inconclusive = small, poorly fitted or top-dose-only effect, or another doubt; inactive = no such curve, though single readings can be large or run the other way; cell line not stated here;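 also: phosphodiesterase inhibitor Ro 20-1724 added with compounds to block cAMP breakdown; potency is read from the fitted curve at half-maximal effect; nearly all actives have a fitted effect of over 60% in size; about a fifth of the inactives were tested at one dose only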
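Cells in DMEM/10% FBS with G418 were pretreated with compounds in DMSO plus […] (300 uM stock) for 30 min at 37C. cAMP was measured by HTRF (cAMP-d2 plus anti-cAMP antibody-K) after 30 min at room temperature.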
TRPV1 potentiator = HTS Assay for Compounds that Act as Potentiators of the Vanilloid Receptor 1; Transient receptor potential cation channel subfamily V member 1 (Homo sapiens), Q8NER1; TRPV1-expressing cells, Fluo-8 calcium influx, capsaicin EC20 potentiation; host cell line not named in the record; control for the full effect not named in the record; potentiation, % at 8.33 µM; hit rate 0.02% among 320,000; AID 540277, 2011; active means potentiation above 80%; inconclusive means 30% to 80%; inactive means below 30%; also: 0% is about no effect
Target sequence (Q8NER1 whole entry, looked up): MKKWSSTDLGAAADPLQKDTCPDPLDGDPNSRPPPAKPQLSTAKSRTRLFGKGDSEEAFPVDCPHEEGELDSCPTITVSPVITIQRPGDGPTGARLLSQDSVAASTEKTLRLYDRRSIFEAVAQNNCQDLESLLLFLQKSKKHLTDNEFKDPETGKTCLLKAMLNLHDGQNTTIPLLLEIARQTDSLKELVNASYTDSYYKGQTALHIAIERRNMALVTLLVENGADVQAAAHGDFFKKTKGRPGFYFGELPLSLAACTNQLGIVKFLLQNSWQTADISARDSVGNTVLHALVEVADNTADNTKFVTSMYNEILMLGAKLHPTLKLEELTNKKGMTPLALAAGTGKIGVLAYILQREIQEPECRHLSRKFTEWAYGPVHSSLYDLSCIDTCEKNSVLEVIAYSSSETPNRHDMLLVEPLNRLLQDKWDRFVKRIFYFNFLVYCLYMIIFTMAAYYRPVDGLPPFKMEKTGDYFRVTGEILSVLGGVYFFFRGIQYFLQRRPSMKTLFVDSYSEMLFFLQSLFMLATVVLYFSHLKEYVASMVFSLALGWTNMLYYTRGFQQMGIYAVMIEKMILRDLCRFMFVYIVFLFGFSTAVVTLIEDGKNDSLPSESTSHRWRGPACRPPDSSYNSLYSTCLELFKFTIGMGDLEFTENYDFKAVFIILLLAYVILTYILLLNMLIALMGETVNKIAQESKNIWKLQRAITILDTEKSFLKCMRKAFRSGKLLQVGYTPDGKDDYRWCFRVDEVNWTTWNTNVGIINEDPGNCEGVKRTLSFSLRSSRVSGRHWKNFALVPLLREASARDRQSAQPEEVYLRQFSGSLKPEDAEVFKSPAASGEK
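TRPV1-expressing cells were cultured overnight at 35.5C and loaded with Fluo-8 calcium dye for 40 to 90 min at room temperature. After a 10 s baseline, compound was added and calcium influx was read kinetically for 3 min (ex 480/em 520 nm).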
gsp antagonist = qHTS for Antagonists of gsp, the Etiologic Mutation Responsible for Fibrous Dysplasia/McCune-Albright Syndrome: qHTS. hit rate 0.4% among 340,000. Potency, µM (titrated, usually from 76.9 µM), for inactives: at the top dose activity change, negative = inhibition, actives largely listed as inhibitors. AID 624288, 2012. gsp-mutant cells, cAMP HTRF, 30 min; control for the full effect not named in the record; active = falling curve of any shape with a large fitted effect; inconclusive = falling curve, mostly with a smaller effect; inactive = flat or rising curve; cell line not stated here;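 also: intracellular cAMP measured with PDE inhibitor Ro 20-1724 present during compound exposure; potency is read from the fitted curve at half-maximal effect; % is scaled to controls: 0 for no effect and ±100 for the full control effect; nearly all actives have a fitted effect of over 65% in size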
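HTRF cAMP measurement after 30 min RT detection following 30 min, 37C compound treatment alongside […] (added as 300 uM solution) in G418-selected cells seeded at 2000/well and grown 16–24 h.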
* marks the source's active call; other numbers are inactive results; ? = inconclusive; . = not tested or not shown; & = joins results of further samples; [ ] = remark or other dose. An unsorted share of the library. About 5.3% of those tested had a hit in this group.

SMILES	ClpP mod	CtBP-E1A inh	Menin MLL FP FL	Sfp PPTase inh	gsp agonist	TRPV1 potentiator	gsp antagonist
COc1ccc(-c2cn3nc(SCC(=O)NCC4CCCO4)ccc3n2)cc1 (configuration not stated)	4.3%	.	.	6%	29%	14	-1%
Nc1c(Br)cc2c(c1Br)C(O)c1ccccc1-2 (configuration not stated)	-3.0%	4	.	.	-29%	.	-10%
COc1cc(OC)cc(-c2nnc(NC(=O)CCS(=O)(=O)c3ccccc3)o2)c1	-22%	-13	.	.	7%	8	-8%
C1=C(c2ccccc2)Nc2ncnn2C1c1ccccc1 (configuration not stated)	3.4%	2	.	.	.	.	-8%
CCC(=O)N1c2ccc(S(=O)(=O)CCC(=O)NC3CCCC3)cc2CC1C (configuration not stated)	0.0%	5	-7.0	3%	12%	1	0%
Cc1ccccc1S(=O)(=O)NC1=NCCCCC1	0.6%	9	3.7	9%	17%	11	4%
O=C(CCC(=O)N(CC(=O)NC1CCCCC1)Cc1cccs1)Nc1ccccn1	.	1	0.7	18%	15%[15.4 µM]	-7	1%
O=C(COC(=O)C12CC3CC(CC(C3)C1)C2)Nc1ccc([N+](=O)[O-])cc1Cl	-1.6%	-6	6.1	-2%	-1%	15	-1%
CCOc1cccc(/C=N/NC(=O)C2CCCC2)c1O	-4.4%	?	.	19%	?	21	-5%
CCOc1ccc(NC(=O)Cn2nnc(C(=O)NCc3ccco3)c2N)cc1	-1.8%	1	1.0	5%	?	17	5%
O=C(NCc1ccc(F)c(F)c1)C1CCC(=O)N(CCc2ccccc2)C1 (configuration not stated)	0.4%	13	-0.4	12%	-7%	6	23%
COc1ccc(OCc2nnc(SCC(=O)NC3CCCCC3)o2)cc1	0.6%	-2	-2.9	16%	-1%[15.4 µM]	3	-10%
Cc1cc(C)n2nc(SCC(=O)N/N=C/c3ccccn3)nc2n1	0.3%	-3	0.4	56µM*	?	-4	18%
CCNC(=S)N/N=C(\C)c1ccc2ccccc2c1	.	.	-2.6	2%	.	4	.
COc1ccc(OC)c(/C=c2\sc3nc(-c4cccs4)nn3c2=O)c1	-5.3%	6	?	-19%	-9%	3	5%
C=C(C)C1CCC2(C(=O)O)CCC3(C)C(CCC4C5(C)C(C=O)C(O)C(C)(C)C5CCC43C)C12 (configuration not stated)	0.4%	10	0.4	-4%	.	-7	-36%
CSc1nc(N)nc2c1ncn2CC(=O)N[C@H](C)c1cccc2ccccc12	?	0	.	.	.	.	-17%
O=C(CSc1ccc2ccccc2c1Br)Nc1cccc(S(=O)(=O)NC2=NCCCCC2)c1	64%	-9	5.5	10%	?	12	0%
O=C1CC(N2CCN(c3ccc(F)cc3)CC2)C(=O)N1Cc1cccs1 (configuration not stated)	-1.0%	-4	-1.8	3%	16%	-8	-21%[15.4 µM]
CCc1ccccc1N1CC23C=CC(O2)C(C(=O)OCC(C)C)C3C1=O (configuration not stated)	1.2%	2	0.9	3%	-49%[inhibitor]	.	10%
COc1ccc(CCNC(=O)CCN2C(=O)COc3ccc(C)cc32)cc1OC	-0.9%	0	2.3	4%	11%	.	2%
Cc1ccc(C(=O)NCC(=O)Nc2ccncc2)cc1	-0.4%	0	.	11%	-27%	-1	6%
c1ccc(Cn2c(CSc3nnnn3-c3ccccc3)nc3ccccc32)cc1	-20%	-4	0.1	-6%	-18%	-16	-13%
O=C(CN(c1ccccc1F)S(=O)(=O)c1ccccc1)Nc1ccc2c(c1)OCCO2	-2.1%	-7	.	13%	0%	-20	-30%
Cc1ccc(NC2OC(CO)C(O)C(O)C2O)cc1 (configuration not stated)	-0.2%	15	1.0	?	-31%[inhibitor]	5	-1%
O=C1CC(NNc2ccccc2)C(=O)N1c1ccccc1 (configuration not stated)	0.6%	-13	-0.1	1%	-26%	9	13%
CC(=O)c1sc(NC(=O)C(C)C)nc1C	0.3%	1	1.1	19%	?	14	27%
CCc1ccc(NC2CC(=O)N(c3ccc(OC)cc3OC)C2=O)cc1 (configuration not stated)	-0.9%	12	7.2	22%	-3%	11	?
COc1cccc(CNS(=O)(=O)c2ccc(-n3cnnn3)c(C)c2)c1	-0.1%	15	.	8%	-10%[15.4 µM]	-7	1%
C[C@]12CCC(=O)C=C1CC[C@@H]1[C@@H]2[C@@H](O)C[C@@]2(C)[C@H]1CC[C@]2(O)C(=O)COC(=O)CCC(=O)O	0.4%&-0.1%	1&7	-1.3&0.7&-1.2	0%&-1%	.	13&5	-1%&-3%
Cc1[nH]n(-c2ccccc2)c(=O)c1N=Nc1ccccc1C(=O)N1CCCCC1	-1.7%	.	-1.6	5%	11%	-6	-7%
CCNC(=S)N1C2CCC1CC(NC(=O)NC1CCCCC1)C2 (configuration not stated)	-1.9%	0	3.9	9%	17%	12	1%
O=C(c1cccs1)n1nc(-c2ccccc2)nc1NCc1ccc(F)cc1	-30%	11	-0.8	4%	4%	1	21%
Cc1ccc(/C=c2\sc3n(c2=O)CN(c2ccc(Br)cc2)CN=3)o1	-0.5%	-4	?	10µM*	-33%[inhibitor]	3	?
Cc1cc(C)n(C(=O)Cn2nc(C)c(Cl)c2C)n1	-1.0%	-3	-1.2	18%	19%[15.4 µM]	-6	4%
Cc1[nH]c2ccccc2c1SCC(=O)N1CCCCCC1	-1.5%	5	0.1	10%	-24%	-5	2%
COc1ccccc1NC(=O)C1CCCN(S(=O)(=O)c2cnc[nH]2)C1 (configuration not stated)	2.1%	-1	-3.0	-2%	-4%	5	7%
CS(=O)(=O)N1CCN(c2ccc(Cl)cc2[N+](=O)[O-])CC1	0.9%	6	0.7	7%	12%	-4	12%
C=C(C)CSc1nc2c(c(=O)[nH]c(=O)n2C)n1Cc1ccccc1	-2.2%	-25	5.0	-11%	-12%	12	7%
CCOC(=O)c1c(NC(=O)/C=C/c2ccco2)sc(C)c1C	0.5%	0	6.0	-8%	-34%[inhibitor]	0	6%
CCOc1ccc(OCCC(=O)OCC(=O)NCc2ccccc2)cc1	-1.4%	-16	.	12%	25%	-19	-5%
O=C(Nc1cccc(C(=O)N2CCN(c3ccc(F)cc3)CC2)c1)c1ccccc1	.	-8	1.3	-3%	4%[15.4 µM]	11	-7%
Cc1cc(Cl)ccc1Oc1ncc(-c2ccc(Cl)cc2)cn1	-2.6%	-10	3.3	10%	?	-9	?
CCCCn1c(SCC(=O)OC)nc2c1c(=O)n(C)c(=O)n2C	-0.2%	5	1.8	24%	?	-6	7%
OCCNc1nc(NCc2ccccc2)c2ccccc2n1	.	-12	-7.4	5%	-9%	4	9%
CC(=O)Nc1ccc(C(=O)CSc2cc(C)c3cccc(C)c3n2)cc1	0.7%	0	8.6	-17%	-7%	8	-28%
Oc1ccc(/C=N/n2cc(-c3ccccc3)[nH]c2=S)cc1	4.0%	-20	-4.4	18µM*	-8%	6	-21%
Cc1sc2ncnc(OCC(=O)NC3CCS(=O)(=O)C3)c2c1C (configuration not stated)	-1.8%	.	-4.9	11%	42%	0	8%
COc1ccc(/C(N)=N/OC(=O)c2c(-c3ccccc3Cl)noc2C)cc1OC	-0.5%	8	.	10%	-36%	0	0%
Cc1noc(C)c1COc1ccccc1C(=O)N(C)Cc1ccco1	1.8%	4	.	.	-2%	-5	12%
(further entries)
SMILES	ClpP mod	CtBP-E1A inh	Menin MLL FP FL	Sfp PPTase inh	gsp agonist	TRPV1 potentiator	gsp antagonist
OCc1cn(-c2ccccc2)nn1	.	-4	-0.6	3%	-15%	-10	8%
O=S(=O)(Nc1ccccc1N1CCOCC1)c1ccc(F)c(Cl)c1	1.1%	9	.	10%	-30%[inhibitor]	10	-6%
COc1ccc(/C=C/C(=O)c2cc(Cl)ccc2O)c(OC)c1	.	15	1.7	?	2%[15.4 µM]	0	-5%
COCOCCn1cc(CN2CCS(=O)(=O)N(Cc3ccc(-c4cccc(CO)c4)cc3)C(C)C2=O)nn1 (configuration not stated)	0.5%	6	.	.	?	.	.
CC(=O)Nc1ccc(C(=O)NNC(=O)c2cc([N+](=O)[O-])cc([N+](=O)[O-])c2)cc1	.	-7	0.7	8%	12%[15.4 µM]	-2	6%
O=C1CC(c2ccc(O)cc2)Oc2cc(O)ccc21 (configuration not stated)	-15%	-5	.	.	-10%	.	4%
O=c1[nH]cc(O)c(=O)[nH]1	-1.9%	1	-7.8	-7%	.	-13	10%
O=C(O)C(Cc1ccccc1)NS(=O)(=O)c1ccc2c(c1)OCCO2 (configuration not stated)	-0.9%	2	-1.6	3%	?	-2	9%
Cc1noc(C)c1CSc1ncnc2sc3c(c12)CCC(C)C3 (configuration not stated)	.	.	0.1	-1%	.	4	.
CC(C)(C)C(=O)O/N=C(\N)c1ccc(Br)cc1	.	5	0.6	12%	2%[15.4 µM]	10	8%
CC(=O)Nc1ccc(S(=O)(=O)NNC(=O)COc2cc(C)ccc2C(C)C)cc1	0.4%	2	-1.5	-12%	-24%	-18	-7%[15.4 µM]
CCC(CC)NC(=O)CSc1nnc(-c2ccc(OC)cc2)n1C(C)C	-2.7%	-1	0.2	2%	-23%	21	-3%
O=C1c2cccc(Sc3ccccc3)c2C(=O)c2c(Sc3ccccc3)cccc21	.	?	1.7	-23%	10%[15.4 µM]	7	2%
CCOC(=O)c1ccc2nc(C)c(C)nc2c1	.	7	2.2	16%	9%[15.4 µM]	-11	0%
O=C(NCC(=O)N1CCCC(C(F)(F)F)C1)c1ccccc1Br (configuration not stated)	-3.0%	-22	.	.	4%	28	12%
